# Screens as filed in PubChem.
# Bfl-1 A1 inh – inhibitors of the anti-apoptotic protein A1, read as caspase activation. MEF A1-2A-BIM cells, Caspase-Glo 3/7 luminescence, 3 h; percent of clofoctol response, vehicle zero. caspase activation, % (concentration not given with the values). 330,000 tested, 0.066% active;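 active = over half of replicate activation scores above 10%, or exactly half above 10 with the replicate mean above 10; inconclusive = replicate mean below 10 yet half the replicates above 10; inactive = over half of replicates below 10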;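 note: wells of about 30 µL received 50 nL stock; many hits fall short of the cut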
# Calb FLC – C. albicans growth modulation with fluconazole | C. albicans CaCi-2 (fluconazole-resistant clinical isolate) + fluconazole, Alamar Blue growth, 48 h | growth inhibition, % (no concentration beside the values) | 300,000 tested, 0.57% active;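 active = most replicates above 75%; inconclusive = exactly half above 75%; inactive = most below 75%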;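 note: all wells also contain fluconazole at 8 µg/ml as a sub-toxic cotreatment; 0% = median of DMSO wells and 100% = median of geldanamycin control wells; wells of about 8 µL received 7.5 nL stock; the first replicate is given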
# LANA-H2A inh – blocks KSHV LANA binding to histone H2A/H2B | cell-free LANA-H2A/H2B peptide, fluorescence polarization | inhibition, % (test concentration not listed) | 320,000 tested, 0.6% active | AID 2629; in the data active = inhibition mostly above about 10%, no sharp cut-off; inactive = mostly below about 6.7%;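 note: stock transfer was 7.5 nL into about 10 µL; 0% = median of vehicle wells and 100% = median of positive control wells; one replicate is shown; the record names a cut of 25% in any replicate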
# Beta cell apopt – beta cell apoptosis inhibition; INS-1E cytokine-induced death, ATP luminescence, 48 h; percent of positive-control rescue, neutral wells zero; protection from apoptosis, % (concentration not given with the values); 300,000 tested, 0.8% active;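 active = all replicates at 75% or more, or half of them and the mean; inconclusive = half reach 75% but not the mean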;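 note: 0% = cytokine-treated negative control wells and 100% = positive control rescue; higher means more ATP so stronger rescue from cytokine killing; wells of about 40 µL received 100 nL stock; the first replicate is given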
# T cruzi inh – T. cruzi replication inhibition | T. cruzi beta-gal in NIH3T3, luminescence, 90 h | inhibition, % (test concentration not listed) | 300,000 tested, 1.4% active;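 active = mean inhibition across valid replicates above about 55%, limit read from the data; inconclusive = mean below that limit but half or more replicates reach it; inactive = mean below it, under half of replicates reach it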;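 note: signal also drops with host cell toxicity which is not excluded here; 0% = plate median of DMSO wells and 100% = zero luminescence signal; higher percent means less beta-gal luminescence so fewer parasites; stock transfer was 50 nL into about 50 µL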
# UCH37 inh – human UCH37 deubiquitinating enzyme inhibition; 330,000 tested, 0.33% active; inhibition, % (no concentration beside the values); AID 588478; purified proteasome/UCH37, Ub-AMC cleavage fluorescence;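 active = mean of two replicates above 20%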;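 note: 0% = compound-free wells with enzyme and 100% = wells lacking proteasome; stock transfer was 100 nL into about 20 µL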
# Target sequence (Q9Y5K5 whole entry, looked up): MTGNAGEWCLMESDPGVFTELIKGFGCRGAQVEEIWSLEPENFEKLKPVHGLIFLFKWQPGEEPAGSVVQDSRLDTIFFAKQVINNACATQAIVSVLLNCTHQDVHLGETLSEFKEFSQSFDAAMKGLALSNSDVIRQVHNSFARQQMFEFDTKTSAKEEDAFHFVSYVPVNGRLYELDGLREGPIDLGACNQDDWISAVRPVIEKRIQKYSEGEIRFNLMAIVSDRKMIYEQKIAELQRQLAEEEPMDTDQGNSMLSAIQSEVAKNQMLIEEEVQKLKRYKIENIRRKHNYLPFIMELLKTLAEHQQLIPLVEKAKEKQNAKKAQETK
#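 Material: Human UCH37 enzyme supplied as purified proteasome complex | Schedule: 30 min preincubation with enzyme, 25 min cleavage at room temperature | Detection: AMC fluorescence 355/460 nm | Measure: % inhibition of Ub-AMC cleavage fluorescence | Controls: Wells without proteasome as full block, compound-free enzyme plus substrate as uninhibited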
# RanGTP-Impb inh – inhibitors of RanGTP-importin-beta interaction, primary screen, biochemical, FRET, CFP-Ran, YFP-importin-beta, homogeneous; cell-free CFP-Ran/YFP-importin-beta FRET ratio; inhibition, % (no concentration beside the values); 300,000 tested, 1.1% active;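 active = most replicates above 15%; inconclusive = exactly half above 15%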;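 note: 0% = DMSO wells and 100% = Ran loaded with GDP instead of GTP; wells of about 40 µL received 100 nL stock; the first replicate is given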
# B2AR ag – human beta-2 adrenergic receptor agonism by FAP. Am2.2-beta2AR cells, FAP receptor internalization, flow cytometry; reference of the scale not given here. response, % (test concentration not listed). 340,000 tested, 0.43% active. AID 504454;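 active = response above a set limit, near 3 SD of response in nonfluorescent compounds, cut at about 42% in these data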;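 note: stock transfer was 100 nL into about 11 µL; a reference agonist was the positive control; negative values mostly stem from fluorescent compounds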
# Target sequence (P07550 whole entry, looked up): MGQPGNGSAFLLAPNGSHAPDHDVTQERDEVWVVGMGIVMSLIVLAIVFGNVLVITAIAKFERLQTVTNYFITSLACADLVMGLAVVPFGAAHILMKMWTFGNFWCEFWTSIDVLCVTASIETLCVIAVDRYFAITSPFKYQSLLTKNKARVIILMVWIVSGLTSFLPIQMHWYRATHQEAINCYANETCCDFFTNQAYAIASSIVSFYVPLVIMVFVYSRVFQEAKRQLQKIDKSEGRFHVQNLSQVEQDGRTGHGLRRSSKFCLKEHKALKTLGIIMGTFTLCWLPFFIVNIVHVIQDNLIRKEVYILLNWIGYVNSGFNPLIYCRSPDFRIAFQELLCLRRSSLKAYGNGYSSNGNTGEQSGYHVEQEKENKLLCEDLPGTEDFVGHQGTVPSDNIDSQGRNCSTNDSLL
# Active calls of the source: *; i = inactive; ? = inconclusive; . = no result given. Not a hit list, and some 4.3% of all compounds hit somewhere here.
SMILES,Bfl-1 A1 inh,Calb FLC,LANA-H2A inh,Beta cell apopt,T cruzi inh,UCH37 inh,RanGTP-Impb inh,B2AR ag
COc1ccc(S(=O)(=O)N2CCCCC2)cc1NC(=O)c1ccccc1,-0.6,-5,1.9,2,6,2.6,5.5,-4
CCn1cc(CN2CCC(n3nccc3NC(=O)Cc3ccccc3)CC2)cn1,-0.5,8,-1.9,0,8,-0.9,-0.9,3
CC(C)(C)c1ccc(C(=O)Cn2nc(C(=O)O)c3ccccc3c2=O)cc1,0.2,9,7.3,-10,-21,2.3,3.1,9
COc1ccc(N=C2SC(C(=O)O)CC(=O)N2Cc2ccc(OC)c(OC)c2)cc1 (stereo unspecified),1.1,0,1.9,-10,-7,2.3,1.7,-1
COc1ccccc1N1CCN(CC(=O)c2ccc3ccn(C(C)=O)c3c2)CC1,.,3,-1.7,-6,6,.,0.8,-3
O=c1[nH]c2ccccc2c(O)c1-c1cc2ccccc2oc1=O,0.7,0,2.5,-1,1,8.4,0.0,.
CCOc1ccccc1NC(=S)NCCc1ccc(F)cc1,0.3,-20,2.3,-4,-17,4.0,1.6,-3
COc1ccc2nc(SCC(=O)NCc3ccc4c(c3)OCO4)[nH]c2c1,-0.5,2,2.6,-2,-7,-1.3,7.6,7
Cc1cc(-c2nn(-c3ccccc3F)cc2CN2CCN(c3ccccn3)CC2)c(C)s1,-0.2,-9,-6.1,-3,25,-0.2,-5.9,4
O=c1[nH]cnc(O)c1C(c1ccc(Br)cc1)c1c(O)nc[nH]c1=O,-0.7,-4,-8.0,-3,7,0.0,0.9,-5
COc1cc(S(=O)(=O)N2CCCC2)c(C)cc1C,1.3,-2,0.0,.,17,2.4,-0.3,3
CCOC(=O)c1c(NC(=O)CSc2nnnn2C)sc(C)c1C,1.7,13,-1.9,.,5,1.8,6.0,-5
O=C(O)CCC(NC(=S)Nc1ccccc1)C(=O)O (stereo unspecified),-0.9,3,4.3,-2,-11,-0.2,-5.0,-1
Cc1ccc(NC(=O)c2nc[nH]c2C(=O)N2CCN(C(=O)OC(C)(C)C)CC2)cc1,-0.2,.,3.0,0,.,1.0,.,-5
CC(C)c1ccccc1NC(=O)COC(=O)Cc1cccc(C(F)(F)F)c1,0.1,-9,-5.5,.,-15,2.4,-1.9,1
COCCN(C(=O)c1ccc(-c2ccc(Cl)cc2)o1)c1c(N)n(Cc2ccccc2)c(=O)[nH]c1=O,-0.1,.,-7.2,0,-1,1.4,?,2
Cc1cc(Br)ccc1SCC(=O)NNC(=O)c1ccco1,0.4,.,-9.5,-8,.,1.9,.,-10
Cc1ccc(-n2sc3ccccc3c2=O)cc1S(=O)(=O)N1CCCCC1,-2.3,-7,6.5,0,78*,5.8,3.2,5
S=C(NCCN1CCOCC1)N/N=C/c1cccs1,-0.4,4,-5.7,-1,22,.,-1.5,-2
CC(C)(C)NC(=O)CCN(/N=C/c1ccncc1)C1=NS(=O)(=O)c2ccccc21,2.5,6,2.3,3,-14,.,-2.7,4
COc1cc2c(cc1OC)C(C)N(C(=O)c1ccc(C)o1)CC2 (stereo unspecified),-0.7,12,0.9,-2,-11,0.1,-2.9,-3
CCCc1ccc(O)c(N=Cc2cc(Br)cc(OCC)c2O)c1,-0.1,-23,-3.9,-7,-5,-2.0,-2.5,19
CN1C(=O)[C@H]2[C@@H](/C=C/c3ccccc3)N3C(=O)CN(CCO)C(=O)[C@@]3(Cc3ccccc3)[C@H]2C1=O,0.1,-13,-2.2,-2,-17,-1.1,-0.9,0
COc1ccc(OC)c(C(=O)COC(=O)c2ccc(C)o2)c1,-0.5,3,-7.5,-4,3,-3.8,3.2,-4

# A section from the list above, for reference:
SMILES,Bfl-1 A1 inh,Calb FLC,LANA-H2A inh,Beta cell apopt,T cruzi inh,UCH37 inh,RanGTP-Impb inh,B2AR ag
O=C(O)CCC(NC(=S)Nc1ccccc1)C(=O)O (stereo unspecified),-0.9,3,4.3,-2,-11,-0.2,-5.0,-1
Cc1ccc(NC(=O)c2nc[nH]c2C(=O)N2CCN(C(=O)OC(C)(C)C)CC2)cc1,-0.2,.,3.0,0,.,1.0,.,-5
CC(C)c1ccccc1NC(=O)COC(=O)Cc1cccc(C(F)(F)F)c1,0.1,-9,-5.5,.,-15,2.4,-1.9,1
COCCN(C(=O)c1ccc(-c2ccc(Cl)cc2)o1)c1c(N)n(Cc2ccccc2)c(=O)[nH]c1=O,-0.1,.,-7.2,0,-1,1.4,?,2
Cc1cc(Br)ccc1SCC(=O)NNC(=O)c1ccco1,0.4,.,-9.5,-8,.,1.9,.,-10
Cc1ccc(-n2sc3ccccc3c2=O)cc1S(=O)(=O)N1CCCCC1,-2.3,-7,6.5,0,78*,5.8,3.2,5

# Following part
SMILES,Bfl-1 A1 inh,Calb FLC,LANA-H2A inh,Beta cell apopt,T cruzi inh,UCH37 inh,RanGTP-Impb inh,B2AR ag
CCOC(=O)c1c(-c2ccc(C)cc2)csc1NC(=O)c1cccc(N2C(=O)CCC2=O)c1,0.5,-2,0.8,0,1,-63,0.5,2
CCN(CCO)c1ncnc2c1sc1nc(CC(C)C)c3c(c12)CC(C)(C)OC3,-0.4,20,7.0,-4,3,-28,?,23
O=C(N/N=C/c1ccccc1[N+](=O)[O-])c1ccc(CN2CCOCC2)cc1,-0.2,-14,-0.8,-3,-21,.,0.1,-2
COC(=O)c1nn(-c2ccc3c(c2)CCN3C(C)=O)cc1O,-12,6,1.9,7,-5,-455,-7.2,-15
CCCCCNC(=O)[C@@H]1CSC2c3ccccc3C(=O)N21 (stereo partly specified),-0.5,10,-0.6,-21,-3,0.8,0.6,-3
CCc1ccc(NC(=O)c2cc3c(C)nc4ccccc4c3o2)cc1,-0.7,6,12,9,33,1.0,-5.6,19
O=C(O)C1CCN1C1CCCCC1 (stereo unspecified),0.2,.,10,-1,-8,1.0,2.9,5
COc1cccc(N(CC(=O)NC2CCCCC2)C(=O)CCC(=O)Nc2nc(C)cs2)c1,0.2,-12,-1.7,-1,3,3.5,-5.6,0
OC1(c2cccc(C(F)(F)F)c2)CCN(Cc2nc(-c3cnccn3)no2)CC1,-0.8,-2,-0.6,-4,4,1.9,-1.2,-2
O=C(Nc1ccc(-c2nc3ccccc3s2)c(O)c1)C1=COCCO1,2.5,4,-0.6,23,-4,-7.2,-31,8
CCc1cc2c(cc3c(=O)n(CC(=O)N4CCN(c5ccccn5)CC4)nc(CC)n32)s1,0.1,-2,3.4,.,12,0.2,0.9,6
Nc1ccc(S(=O)(=O)Nc2nccc(/C=C/c3cccc(Br)c3)n2)cc1,-0.1,2,-2.9,-23,13,3.7,-1.3,6
CCNc1nc(N)c(C(=C(C#N)C#N)c2ccccc2)s1,-0.2,-4,6.4,.,-7,i,?,2
O=C(COC(=O)c1ccc(Sc2ccccc2)c([N+](=O)[O-])c1)NC1CCCc2ccccc21 (stereo unspecified),1.1,2,6.1,-1,-8,-0.7,0.7,14
COc1ccc(NC(=O)C2C3C=CC(O3)C2C(=O)NCc2cccnc2)cc1 (stereo unspecified),0.3,?,4.2,0,-16,4.2,-2.2,3
CCCS(=O)(=O)Nc1ccc(-c2cn3c(n2)SCC3)cc1,0.1,5,4.7,-10,-1,0.8,4.2,-10
CCOC(=O)N1CCN(C(=O)c2c[nH]c3ccc(S(=O)(=O)N(C)c4ccc(F)cc4)cc3c2=O)CC1,0.1,3,0.4,-6,-23,-20,0.7,-3
Cc1cc(SCC(=O)N/N=C/c2ccc(O)cc2O)c(C)cc1Br,0.1,101*,1.3,55,62*,.,3.2,2
C[n+]1cn(/N=C/c2ccccc2)c2ccccc21,-0.1,-29,-4.4,1,-22,.,-2.1,-1
COC(=O)c1ccc(S(=O)(=O)NCCc2ccccc2OC)n1C,-0.6,7,-1.6,1,-6,3.6,-7.6,-4
CC(=O)Nc1ccccc1C(=O)C(=O)O,0.0,4,3.7,-6,-8,-1.9,7.5,2
Cc1nc(N2CCN(c3ccccc3)CC2)nc2c1C(=O)CC(c1ccccc1)C2 (stereo unspecified),-0.4,16,-4.0,7,-11,-9.4,3.7,1
O=C(Nc1ccc(S(=O)(=O)N2CCCCC2)cc1)C1CC(=O)N(c2ccc(F)cc2)C1 (stereo unspecified),0.0,-10,4.9,5,-5,-0.5,0.3,7
Cc1noc(C)c1C(=O)N1CCC(Cc2ccccc2)CC1,0.1,-5,4.3,6,-7,1.4,4.6,4
O=C(COc1ccc(Cl)cc1Cl)N/N=C/c1ccccn1,1.0,5,-1.3,1,-10,.,3.3,-8
CCOC(=O)c1ccc(NC(=O)CNNC(=O)COc2ccccc2C)cc1,0.4,.,12,5,.,-1.1,.,-4
COc1cccc(NC(=O)CSCc2cc(=O)n3ccsc3n2)c1,-0.1,-4,-4.9,-3,-13,2.4,-0.8,0
CC(C)CCN(C(=O)CNC(=O)c1cccs1)C(C(=O)NC1CCCC1)c1ccncc1 (stereo unspecified),0.5,-3,0.0,-3,34,0.7,0.1,-13
Cc1ccc(C)c(NC(=O)CSc2ccc(-c3ccco3)nn2)c1,0.2,-7,-1.5,1,-9,2.4,4.4,7
COc1ccc(OC)c(CCNC(=O)c2ccc(NC3=NC4CS(=O)(=O)CC4S3)cc2)c1 (stereo unspecified),-0.5,-19,-4.2,-3,-8,2.2,-4.1,8
CC(=O)c1nc(N2C(=O)C3CC=C(C)CC3C2=O)sc1C (stereo unspecified),?,18,5.1,1,0,1.6,3.0,-12
Cc1nc2ccccc2n1C1CC(=O)N(Cc2ccccc2)C1=O (stereo unspecified),-0.2,-6,1.6,1,-9,5.4,2.7,-1
Cc1nc(N)sc1N=Nc1ccc(Br)cc1,-0.2,-6,-7.9,4,0,4.6,-3.7,6
C/C(=N\Nc1ccccc1Cl)c1ccc(-n2ccnc2)cc1,0.2,-2,-2.2,-8,-24,.,3.5,11
C=CCc1ccc(OCCCOc2ccc(C(=O)O)cc2)c(OC)c1,1.0,8,-3.1,.,6,0.9,0.6,7
CCCOC1CCCN(C(=O)c2cc(COc3c(F)cccc3F)on2)C1 (stereo unspecified),-1.0,-3,0.5,-2,3,3.3,-2.7,-6
CCS(=O)(=O)N1Cc2ccccc2CC1C(=O)Nc1cccc(OC)c1 (stereo unspecified),0.3,0,4.3,-2,-8,1.2,3.4,-16
CCCCCOc1ccc(NC(=O)CCCC(=O)O)cc1,-0.5,-1,-2.4,-6,-3,0.6,-3.4,-5
O=c1cc(O)c2c(=O)n(-c3ccccc3)c3ccccc3c2o1,-0.5,11,-3.0,1,-3,0.2,-2.1,12
CC(C)CN(C(=O)CN1CCN(c2ccc(F)cc2)CC1)c1c(N)n(CC(C)C)c(=O)[nH]c1=O,1.2,-22,-4.5,-29,4,-1.0,4.5,-5
OCC1(Cc2ccccc2)CCCN(C2CCCC2)C1 (stereo unspecified),-0.1,3,-1.0,-1,3,3.6,-3.0,1
COc1ccc(N2CCN(S(=O)(=O)c3cc4c5c(c3)C(C)C(=O)N5CCC4)CC2)cc1 (stereo unspecified),0.9,0,3.5,3,2,1.6,-1.0,-1
CC(=O)N(C(C)=O)c1nc2nc(C)cc(C)n2n1,0.5,5,-5.1,.,-1,2.3,-2.7,1
